Tau fluor cs – counter-screen for tau fibril formation inhibitors. AID 1463. Potency, µM (highest dose often 57.7 µM), without a hit: at the top dose activity change, negative = decrease. tau K18 P301L (four-repeat tau fragment) Alexa594 fluorescence, heparin fibrillization. hit rate 0.93% among 280,000; also: potency is read from the fitted curve at half-maximal effect; % is scaled to controls: 0 for no effect and ±100 for the full control effect; nearly all actives have a fitted effect of over 55% in size
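Human K18 P301L tau (15 uM unlabeled plus 0.24 uM Alexa 594-labeled, final) in 100 mM sodium acetate pH 7 was mixed with compound and 20 uM heparin and incubated 6 hr at 37 C.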
GLA spleen mod – alpha-galactosidase A (human) modulation. AID 2107. hit rate 0.008% among 240,000. Potency, µM (doses to about 80 µM), inactives show top-dose activity change, negative = inhibition, hits mostly inhibitors. P06280. human spleen homogenate, 4MU-alpha-Gal fluorescence, 40 min;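 also: potency is read from the fitted curve at half-maximal effect; 0% = enzyme with vehicle and -100% = no enzyme basal signal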
Target sequence (P06280 32-429 limits assumed): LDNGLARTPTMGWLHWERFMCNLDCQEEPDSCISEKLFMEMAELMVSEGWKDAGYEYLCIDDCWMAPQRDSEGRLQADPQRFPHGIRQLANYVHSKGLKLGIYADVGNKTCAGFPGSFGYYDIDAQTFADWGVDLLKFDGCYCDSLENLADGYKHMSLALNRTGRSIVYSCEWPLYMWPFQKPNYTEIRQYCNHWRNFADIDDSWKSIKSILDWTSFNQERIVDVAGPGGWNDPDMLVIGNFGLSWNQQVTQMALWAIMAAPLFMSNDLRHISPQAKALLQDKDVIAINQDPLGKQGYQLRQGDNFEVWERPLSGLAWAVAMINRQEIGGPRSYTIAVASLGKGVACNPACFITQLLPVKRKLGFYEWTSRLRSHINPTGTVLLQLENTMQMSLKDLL
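qHTS titration in buffer at pH 5.0. Alpha-galactosidase activity in spleen homogenate was measured via 4-methylumbelliferone release from 1 mM fluorogenic substrate after 40 min at 37C and a pH 10 stop. AC50 came from Hill fits of control-normalized data.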
Epigenetic reg – regulators of epigenetic silencing causing reporter derepression in mouse cells; hit rate 0.2% among 280,000; AID 1865; murine LDR cells, GFP reporter derepression, 30 h; Potency, µM (highest dose often 53.9 µM), inactives show at the top dose GFP activation, hits mostly activators; also: potency is read from the fitted curve at half-maximal effect; % of control where 0% means no effect; nearly all actives have a fitted effect of over 60% in size
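Murine LDR cells carrying a silenced, genomically integrated CMV-driven GFP reporter were exposed to compound for 30 hours at 37 C. After PBS washes, GFP-positive cells (20–120 um objects) were counted by laser-scanning microplate cytometry.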
TRb SRC2 PPI – disrupts binding of human TR beta to SRC2; TRbeta-SRC2 peptide binding, fluorescence polarization; receptor liganded with 1 µM T3; P10828; Potency, µM (top dose mostly 106 µM), for the others: at the top dose activity change, negative = inhibition, usual class: inhibitors; hit rate 0.065% among 280,000;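 also: potency is read from the fitted curve at half-maximal effect; plate controls were bound peptide for no effect and peptide without receptor for full effect; nearly all actives have a fitted effect of over 50% in size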
Target sequence (P10828 whole entry, looked up): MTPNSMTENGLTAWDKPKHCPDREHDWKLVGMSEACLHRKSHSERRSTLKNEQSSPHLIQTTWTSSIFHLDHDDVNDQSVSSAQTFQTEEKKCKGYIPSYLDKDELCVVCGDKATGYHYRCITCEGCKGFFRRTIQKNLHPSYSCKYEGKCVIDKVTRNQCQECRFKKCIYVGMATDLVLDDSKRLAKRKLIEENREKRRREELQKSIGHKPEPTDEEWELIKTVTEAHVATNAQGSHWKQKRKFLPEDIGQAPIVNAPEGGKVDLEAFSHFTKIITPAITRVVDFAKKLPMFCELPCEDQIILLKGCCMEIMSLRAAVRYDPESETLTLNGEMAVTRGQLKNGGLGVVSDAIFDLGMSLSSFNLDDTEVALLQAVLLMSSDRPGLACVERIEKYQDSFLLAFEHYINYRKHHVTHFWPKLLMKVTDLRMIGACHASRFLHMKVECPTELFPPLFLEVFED
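Quantitative HTS by FP: 0.6 uM TRb LBD, 20 nM labeled SRC2 20-mer, 1 uM T3, 5% DMSO; 5 hr ambient incubation; % activity per concentration and potencies from concentration series.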
CBFb RUNX1 block – inhibitors of human CBF-beta and RUNX1 interaction. 230,000 tested, under 10 active. Potency, µM (titrated, usually from 59.8 µM), without a hit: at the top dose activity, negative = inhibition, usual class: inhibitors. AlphaScreen CBFb-His/RUNX1-biotin binding, biochemical. Q01196+Q13951; also: % of control where 0% means no effect
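Compounds were screened at multiple concentrations against a preformed CBF-beta(His)/RUNX1(biotin) complex (30 nM of each) for 15 min at room temperature, followed by 90 min with nickel and streptavidin beads and AlphaScreen reading.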
TR SRC2 fluor cs – Texas Red fluorescence interference in TRb-SRC2 counter-screen; AID 1479; hit rate 0.29% among 280,000; TRb/SRC2 Texas Red total fluorescence interference; Potency, µM (series often up to 106 µM), for the others: at the highest dose fluorescence change, negative = quenching; active = well fitted curve in either direction with a large enough effect; inconclusive = small, poorly fitted or top-dose-only effect; also: potency is read from the fitted curve at half-maximal effect; % is scaled to controls: 0 for no effect and ±100 for the full control effect
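Flags fluorescent or light-absorbing compounds by total fluorescence, S + 2P, at 555 nm excitation and 632 nm emission. Mixture: 20 nM Texas Red SRC2 peptide, 0.6 uM human TRb LBD, 1 uM T3, 5% DMSO; compound exposure 5 h at ambient temperature.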
Tau FP inhib – blocks human tau fibril formation measured by polarization; hit rate 0.39% among 280,000; P10636; K18 P301L tau heparin fibrillization, Alexa594 FP, 6 h; Potency, µM (doses to about 57.7 µM), for inactives: at the top dose activity, negative = inhibition, usual class: inhibitors; AID 1468; also: potency is read from the fitted curve at half-maximal effect; % is scaled to controls: 0 for no effect and ±100 for the full control effect; nearly all actives have a fitted effect of over 55% in size
Target sequence (P10636 561-689 P618L limits assumed): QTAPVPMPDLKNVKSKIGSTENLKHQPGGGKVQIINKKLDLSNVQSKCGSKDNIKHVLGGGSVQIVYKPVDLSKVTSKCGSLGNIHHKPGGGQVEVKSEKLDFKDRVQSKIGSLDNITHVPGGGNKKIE
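Steps: dispense K18 P301L tau (15 uM plus 0.24 uM Alexa 594 tracer, final) in pH 7 sodium acetate; add compound; add heparin (20 uM final); incubate 6 hr, 37 C; add ThT (30 uM final); after 1 hr ambient, read FP.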
Starred values were filed as active, the others as inactive; ? = inconclusive; & = joins results of further samples; [ ] = remark or other dose. Unless noted, calls follow the shape of the dose curve; as a rule, active = well fitted curve in the direction sought with a large enough effect; inconclusive = small, poorly fitted or top-dose-only effect, or another doubt; inactive = no such curve, though single readings can be large; an effect the other way counts as inactive or inconclusive. These rows are one share of the data; rates above refer to the full screens.

Start of the data: the first 2 compounds as a preview:
SMILES | Tau fluor cs | GLA spleen mod | Epigenetic reg | TRb SRC2 PPI | CBFb RUNX1 block | TR SRC2 fluor cs | Tau FP inhib
CC1CCCC(C)N1C(=O)CSc1nnc(COc2cccc3cccnc23)o1 (stereo not given) | -2% | -4% | -0.1% | -1% | 10% | -5% | -13%[2.34 µM]
COC(=O)NNC(=O)c1ccc(C)cc1 | 0% | 7% | -0.1% | -7% | 7% | 0% | -5%

This part in full, previewed entries included:
SMILES | Tau fluor cs | GLA spleen mod | Epigenetic reg | TRb SRC2 PPI | CBFb RUNX1 block | TR SRC2 fluor cs | Tau FP inhib
CC1CCCC(C)N1C(=O)CSc1nnc(COc2cccc3cccnc23)o1 (stereo not given) | -2% | -4% | -0.1% | -1% | 10% | -5% | -13%[2.34 µM]
COC(=O)NNC(=O)c1ccc(C)cc1 | 0% | 7% | -0.1% | -7% | 7% | 0% | -5%
CCc1ccc(C(C(=O)NC2CCCCC2)N(C(=O)c2ccccn2)c2cccnc2)cc1 (stereo not given) | 1% | 3% | 0.2% | 3% | 3% | 0% | 2%
C#CCn1c(=NC(=O)c2ccc(Br)s2)sc2cc(NC(C)=O)ccc21 | 7% | -10% | -1.3% | 5%[53 µM] | 26% | -3%[53 µM] | -5%
COc1ccc(-c2oc3ncnc(NCCCN4CCOCC4)c3c2-c2ccc(OC)cc2)cc1 | -15% | 2% | 0.0% | -2% | -9% | -5% | 9%
Cc1ccc(NC(=O)CN(C)CC(=O)Nc2cccc(F)c2)cc1S(=O)(=O)N1CCCCCC1 | ? | -3% | -1.6% | -3% | -9% | 0% | -13%
CC1CCCCN1C(=O)c1cc2nc(-c3ccccc3)cc(-c3ccccc3)n2n1 (stereo not given) | -14% | -5% | -0.1% | -11% | 2% | -2% | -12%
CN(CC(=O)Nc1ccc(C#N)cc1)Cc1ccc(Cl)cc1Cl | -26% | 3% | 2.0% | 11% | 3% | -8% | 12%
Cc1cccc(NC(=O)c2ccccc2-c2ccccc2)c1 | 3% | -5% | -0.7% | -11% | -3% | 1% | 7%
COc1ccc(NC(=O)c2cccnc2Nc2ccccc2)cc1 | 16µM*[quencher] | -2% | 2.4% | 4% | -9% | -2% | -14%
O=C(C1=C(O)C(=O)N(Cc2ccco2)C1c1cccnc1)c1cc2ccccc2o1 (stereo not given) | -6% | -13% | 0.0% | 0% | 2% | -3% | -11%
Cc1ccccc1OCCN1C(=O)C(=O)c2cccc(C)c21 | -8% | 4% | 1.0% | 4% | 3% | -8% | 2%
Cc1nn(Cc2ccc(Cl)c(Cl)c2)c(C)c1NC(=O)c1cn(-c2ccccc2)nc1-c1ccccc1 | -20% | -1% | 0.7% | -3% | 1% | -6% | -14%
O=C1OC(c2ccc(Br)cc2)=N/C1=C\c1ccco1 | -3% | -9% | -1.1% | -5% | -5% | 1% | 5%
CCOC(=O)C1CCCN(c2nc3ccccc3nc2C(C#N)C(=O)NCc2ccccc2)C1 (stereo not given) | -18% | 3% | ? | 2% | 16% | -2% | 3%
CC(=O)Oc1ccccc1C1=NN(C(=O)/C=C/c2ccccc2)C(c2ccccc2)C1 (stereo not given) | -17% | -16% | 1.1% | 4% | -2% | 4% | 3%
COc1ccc(C2CC(c3ccccc3)=NN2C(=O)c2cccs2)cc1 (stereo not given) | 7.9µM*[quencher] | 7% | 3.0% | 9% | 11% | -2% | ?
O=C(Nc1nc2ccsc2c(=O)s1)c1ccc(Cl)cc1 | 13% | 5% | 0.1% | -2% | ? | -1% | -1%
O=c1c2c(nc(NCCO)n1CC1CCCCC1)-c1ccccc1CC21CCCC1 | ? | 9% | -2.9% | -1% | 4% | 1% | ?
COCCn1c(=NC(=O)CSCC(=O)NC2CCCCC2)sc2cc(OC)ccc21 | -12% | 7% | 1.1% | 1% | -1% | -3% | -7%
COc1ccc(OC)c(NC(=O)CSc2nc(N)c(-c3ccccc3)c(=O)[nH]2)c1 | -10% | -2% | 9.9% | 2% | 3% | -2% | 1%
CC(C)c1ccc(/C=N/NC(=O)c2nnn(-c3nonc3N)c2CSC2=NCCS2)cc1 | -25% | 2% | 1.0% | -11% | -17% | 0% | ?
CC1CCN(C(=O)C2CCN(S(=O)(=O)c3cc(Cl)ccc3Cl)CC2)CC1 | 15% | 1% | -0.3% | -6% | 10% | -1% | 2%
N#C/C(=C\c1ccccc1)C(=O)N(c1ccccn1)C1CCCCC1 | 7% | 5% | -1.0% | 0% | 0% | 0% | ?
CC1(C)CC(=O)C(C=NCC2CCCO2)=C(O)C1 (stereo not given) | -3% | 2% | ? | 3% | -8% | 0% | -1%
Further structures follow.
SMILES | Tau fluor cs | GLA spleen mod | Epigenetic reg | TRb SRC2 PPI | CBFb RUNX1 block | TR SRC2 fluor cs | Tau FP inhib
Cc1nn(Cc2cccc(C(=O)NC34CC5CC(CC(C5)C3)C4)c2)c(C)c1Br | -13% | 5% | -1.0% | -14% | 4% | 2% | 5%
Cc1ccc(Nc2ncccc2C(=O)O)cc1C | -8% | 6% | -5.0% | 7% | -2% | -2% | 8%
CC(C)(C)NC(=O)C12CCC(C)(c3nc4ccccc4nc31)C2(C)C (stereo not given) | -4% | 5% | 4.8% | -11% | 1% | -2% | 2%
C=CC(COCc1ccccc1)N(C(=O)OC(C)(C)C)S(=O)(=O)c1ccccc1Br (stereo not given) | 3% | -3%&14% | 1.1% | 1%&12% | ? | -1%&-1% | -3%
CCOC(=O)COc1c(OC)cc(Cl)cc1C1Nc2ccccc2C(=O)N1c1ccc(F)cc1 (stereo not given) | -4% | 6% | 0.0% | 3% | 1% | 2% | 0%
Cc1sc2ncnc(SCC(=O)N3CCC(c4noc5ccc(F)cc45)CC3)c2c1C | -13% | -3% | -5.6% | 6% | 1% | 1% | -6%
CC1CCCN(S(=O)(=O)c2ccc(NC(=O)CN3CCN(C)CC3)cc2)C1 (stereo not given) | -7% | 2% | -1.0% | ? | -14% | 2% | 0%
COC(=O)c1ccc(N2CCC(C)CC2)c(N)c1 | ? | 6% | 0.8% | 2% | 3% | 1% | 6%
COC(=O)C1C(O)=C(C=NCC(C)N=CC2=C(O)C(C(=O)OC)C(C)(C)CC2=O)C(=O)CC1(C)C (stereo not given) | -6% | -5% | -3.0% | -3% | -3% | -9% | -7%
CCOC(=O)c1sc(NC(=O)CSc2nc3c(cc2C#N)CCCCCC3)c(C#N)c1C | -26% | -7% | -0.7% | 6% | -21% | 2% | 12%
Cn1c(=NC(=O)CSCC(=O)N2CCOCC2)sc2ccccc21 | -9% | 17% | 1.4% | -2% | -5% | -8% | 0%
O=C1CCCC2=C1C(c1ccccc1)n1c(s/c(=C/c3cccc(F)c3)c1=O)=N2 (stereo not given) | -16% | 0% | 1.0% | -8% | 8% | -5% | 4%
CCc1ccccc1NC(=S)N(Cc1ccco1)C(C)c1cccs1 (stereo not given) | -5% | -10% | 1.1% | 3% | 0% | 1% | 4%
FC(F)(F)c1cccc(CN2CCCCCC2)c1 | 6% | -1% | 1.2% | -3% | 2% | -2% | 4%
Cc1ccc(C2=NNC(C(O)C(O)C(O)C(O)CO)S2)cc1 (stereo not given) | -7% | 6% | 0.7% | -11% | 5% | -5% | 0%
C=C(C)COc1ccc(-c2n[nH]c(C)c2-c2ccc(OC)cc2)c(O)c1 | 25µM*[quencher] | 2% | ? | -1% | -5% | 0% | ?
C#CCNc1nc(CC)nc2c1nnn2Cc1ccccc1F | 1% | 3% | -11% | -10% | 3% | -3% | 6%
Cc1ccccc1OCCNC(=O)CSc1ccc(C(F)(F)F)cc1[N+](=O)[O-] | -3% | 3% | -1.5% | 1% | -1% | 9% | -1%
CCCCC1=CC2=CC(=O)C(C)(OC(=O)CCc3ccccc3)C(=O)C2=CO1 (stereo not given) | ? | -1%&8% | 0.8%&5.7% | 4%&22% | 4%&-18% | -1%&14% | ?
COc1cccc(/C=C/C(=O)c2c(O)cc(C)oc2=O)c1O | -27% | -4% | 5.7% | -1% | -14% | -1% | -4%
CCOC(=O)c1cnc2ccc(OCC)cc2c1N1CCN(c2ccccc2)CC1 | -23% | -9% | -0.9% | 0% | -15% | 1% | 7%
CCCCc1nn(-c2cc(Cl)ccc2OC)c2c1C(=O)CC(C)(C)C2 | -20% | 5% | -0.2% | 2% | 3% | 3% | 1%
O=S(=O)(c1ccccc1)N1CCN(c2cc(-c3ccccc3)nc3ncnn23)CC1 | -3% | -2% | -0.1% | 11% | 9% | -4% | -1%
CSc1ccc(C(=O)C2CCCN(C(=O)c3ccc4c(c3)no[n+]4[O-])C2)cc1 (stereo not given) | ? | 3% | 2.1% | -2% | 3% | 1% | ?
COc1cc(C2c3c(oc4ccc(C)cc4c3=O)C(=O)N2c2cc(C)ccn2)cc(OC)c1OC (stereo not given) | 4% | -10% | 1.0% | -2% | 6% | 1% | 1%
More results follow.
SMILES | Tau fluor cs | GLA spleen mod | Epigenetic reg | TRb SRC2 PPI | CBFb RUNX1 block | TR SRC2 fluor cs | Tau FP inhib
CC(C)c1nnc(NC(=O)CCC(=O)NCCc2ccccc2)s1 | -3% | -1% | -0.7% | 0% | -15% | -2% | -5%
CCOc1cccc(C(=O)Nc2cccc(-c3nnc(-c4ccccc4)o3)c2)c1 | -27% | 7% | ? | 4% | -4% | 0% | -7%
O=C1Nc2c(c(=O)[nH]c(=O)n2-c2ccccc2)C1(Nc1ncccn1)C(F)(F)F (stereo not given) | 6% | 2% | 4.1% | -8% | 9% | 2% | -4%
O=C(O)CSCc1cnn(-c2ccccc2)c1-n1cccc1 | ? | 3% | -1.0% | 0% | 6% | -2% | ?
Cc1cc(C)c(S(=O)(=O)Nc2cccc(/C=C/C(=O)O)c2)c(C)c1 | 0% | 8% | 0.0% | 0% | 6% | 0% | 3%
C/C=C/c1ccc(OCCOc2cc(C=O)ccc2OC)c(OC)c1 | -26% | -11% | 1.1% | 1% | 20% | -2% | 7%
Cc1ccc(S(=O)(=O)c2cc3c(=O)n4cccc(C)c4nc3n(Cc3ccco3)c2=N)cc1C | 0% | 16% | -1.9% | 4% | 3% | -6% | -2%
COc1ccc(OCCNC(=O)CSc2ccc(C(F)(F)F)cc2[N+](=O)[O-])cc1 | -21% | -9% | 1.9% | 6% | 5% | -2% | 3%
Cc1cccc(Cn2ncc(Cl)c(Cl)c2=O)c1 | -5% | -5% | -1.2% | -11% | 5% | 0% | -3%
Cc1ccc(NC(=O)CSc2ncnc3ccccc23)cc1S(=O)(=O)N1CCOCC1 | ? | 5% | 0.7% | 7% | -3% | -3% | -5%
CCC(=O)Nc1ccc(C(=O)CN2CCC(C)CC2)cc1 | -7% | -5% | 7.5% | 3% | 6% | 0% | 9%

Screens from PubChem BioAssay.
